# Bioassay records (PubChem)
# D2 agonist: Beta-Arrestin HTS for Positive Allosteric Modulators of the Human D2 Dopamine Receptor: Agonists; activation, % (no concentration beside the values); 0.084% of 360,000 active; D(2) dopamine receptor (Homo sapiens), P14416; DiscoveRx PathHunter D2 beta-arrestin, luminescence, 90 min; 100% = 57 uM dopamine signal; in the data active = activation above about 40%; inconclusive = about 15% to 40%; inactive = below about 15%; further: compound concentration not given in the record; the text of the record calls up to 30% inactive
#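 Agonist mode: compounds alone added to overnight-plated D2 PathHunter cells for 90 min at 37 C, with 57 uM final dopamine (EC100) defining full response. Beta-arrestin recruitment detected by chemiluminescent reagent, read after 1 h at ambient temperature.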
# CtBP-E1A blk: qHTS Assay for Inhibitors of the CtBP/E1A Interaction; 0.49% of 340,000 active; CtBP / adenovirus E1A interaction (AlphaScreen); AlphaScreen GST-E1A/His-CtBP binding, 1536-well; active compounds read low; control for the full effect not named in the record; activity change, % (test concentration not listed); in the data active means activity change below about -65%; inconclusive means about -30% to -65%; inactive means above about -30%; further: on the % scale 0 is the no-effect control and ±100 the full control effect
#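 Protein mix (5X: 125 nM each GST-E1A, His-CtBP) was incubated with pinned compound 2 h at 37 deg C in dark, in 50 mM Tris pH 8.0 buffer with 300 mM NaCl. Glutathione donor and nickel acceptor beads followed; AlphaScreen signal read after 1 h.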
# PINK1 expr mod: A Quantitative High throughput Screen to Identify Chemical Modulators of PINK1 Expression; PINK1 immunofluorescence, high-content cytometry, 24 h; Potency, µM (series often up to 76.6 µM), for inactives: top-dose activation (PINK1 increase), hits mostly activators; 0.2% of 410,000 active; active = well fitted activation curve with a large enough effect; inconclusive = small, poorly fitted or top-dose-only effect; inactive = flat fitted curve, though single readings scatter; cell line not stated here;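 further: potency means the concentration at half of the fitted maximal effect; % of control where 0% means no effect; nearly all actives have a fitted effect of over 65% in size; a mitochondrial uncoupler was the plate control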
#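 Fluorescence from anti-PINK1 antibody, together with nuclear and cell stains, was scanned on a laser-scanning cytometer. Before staining, stable-line cells were incubated 24 hours with compounds at 5 concentrations; primary antibody 12 h at 10 degrees C.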
# TRPML1 blocker: qHTS for Inhibitors of the Human Mucolipin Transient Receptor Potential 1 (TRPML1); Mucolipin-1 (Homo sapiens), Q9GZU1; TRPML1-inducible cells, Ca2+ dye fluorescence, FDSS; active compounds read low; inhibition of EC80 agonist-evoked calcium signal; activity change, negative = inhibition, % (test concentration not listed); 0.02% of 390,000 active; AID 624415, 2012; in the data active means activity change below about -50%; inconclusive means about -30% to -50%; inactive means above about -30%;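 further: stimulus is agonist 54-4 at its EC80 concentration; on the % scale 0 is the no-effect control and ±100 the full control effect; compound concentration not given in the record; the text of the record puts the active cut at -80%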
#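 Calcium fluorescence in TRPML1-DL cells induced overnight with Tet: a 110 s read after compound pin addition, then a 110 s antagonist read after challenge with 54-4 at 4 uM final (EC80).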
# TRPML1 ag: qHTS for Agonists of the Human Mucolipin Transient Receptor Potential 1 (TRPML1); 0.12% of 410,000 active; AID 624414, 2012; TRPML1-expressing cells, Ca2+ dye fluorescence, FDSS; host cell line not named in the record; reference of the full effect not given here; activation, % (no concentration beside the values); in the data active = activation above about 50%; inconclusive = about 30% to 50%; inactive = below about 30%; further: 0% is about no effect; the text of the record puts the active cut at 80%
#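 In this qHTS format, compounds were pin-transferred onto Ca8-dye-loaded TRPML1-DL cells induced with Tet overnight, and intracellular Ca2+ fluorescence was recorded kinetically for 110 s after a 10 s baseline. A subsequent 4uM final 54-4 (EC80) addition followed by a second 110 s read served as the antagonist phase.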
# Six1-Eya2 inh: qHTS Assay for Inhibitors of the Six1/Eya2 Interaction | activity change, % (test concentration not listed) | Homeobox protein SIX1 (Homo sapiens) + Protein phosphatase EYA2 (Homo sapiens), … | 0.56% of 360,000 active | AID 651725, 2012 | AlphaScreen GST-Six1/His-Eya2 binding, biochemical; active compounds read low; control for the full effect not named in the record; in the data active = activity change below about -65%; inconclusive = about -30% to -65%; inactive = above about -30%; further: on the % scale 0 is the no-effect control and ±100 the full control effect
# Target sequence (O00167 whole entry, looked up): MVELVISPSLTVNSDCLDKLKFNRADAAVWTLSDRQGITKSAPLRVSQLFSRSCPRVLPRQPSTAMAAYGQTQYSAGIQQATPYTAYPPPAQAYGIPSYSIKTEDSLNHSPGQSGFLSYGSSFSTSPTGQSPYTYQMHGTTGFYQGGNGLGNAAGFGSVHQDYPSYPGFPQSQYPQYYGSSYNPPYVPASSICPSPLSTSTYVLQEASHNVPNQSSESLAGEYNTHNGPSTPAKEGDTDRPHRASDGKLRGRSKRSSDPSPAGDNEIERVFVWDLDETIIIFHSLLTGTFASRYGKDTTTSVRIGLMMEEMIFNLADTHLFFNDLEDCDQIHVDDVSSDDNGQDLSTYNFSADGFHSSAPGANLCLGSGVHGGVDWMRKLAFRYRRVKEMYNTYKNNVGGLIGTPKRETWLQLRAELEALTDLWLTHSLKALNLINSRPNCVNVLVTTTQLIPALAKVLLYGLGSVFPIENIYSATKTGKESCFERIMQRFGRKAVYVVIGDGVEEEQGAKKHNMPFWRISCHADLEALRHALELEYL
# Target sequence (Q15475 whole entry, looked up): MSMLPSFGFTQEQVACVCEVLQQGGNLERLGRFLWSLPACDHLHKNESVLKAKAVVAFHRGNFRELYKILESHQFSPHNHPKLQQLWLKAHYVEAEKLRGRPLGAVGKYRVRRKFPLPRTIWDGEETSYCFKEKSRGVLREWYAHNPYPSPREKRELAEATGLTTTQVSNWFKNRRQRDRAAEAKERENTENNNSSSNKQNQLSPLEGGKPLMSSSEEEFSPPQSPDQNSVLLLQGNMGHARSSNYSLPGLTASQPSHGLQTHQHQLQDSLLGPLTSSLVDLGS
#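 Compounds are tested against tagged Six1 and Eya2 proteins bridged by glutathione donor and nickel acceptor beads; after a one-hour incubation at 37 °C without light, AlphaScreen emission is recorded.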
# * marks the source's active call; other numbers are inactive results; ? = inconclusive; nt = not tested or not shown; [ ] = dose if it differs, or a comment.
SMILES	D2 agonist	CtBP-E1A blk	PINK1 expr mod	TRPML1 blocker	TRPML1 ag	Six1-Eya2 inh
CCn1cc([N+](=O)[O-])c(C(=O)N2N=C(c3ccc4ccccc4c3)CC2c2cc(Br)ccc2O)n1 (stereo unspecified)	0.2	-9	-2.9%	9	-0.7	-21
CCOC(=O)C1CCCN(c2nc3c(S(=O)(=O)c4ccc(CC)cc4)nnn3c3ccsc23)C1 (stereo unspecified)	nt	nt	4.0%	42	1.8	nt
O=C1CC(N2CCN(S(=O)(=O)c3cccc(C(F)(F)F)c3)CC2)C(=O)N1Cc1ccccc1 (stereo unspecified)	-0.9	2	-0.2%	-3	1.3	0
C#CCOCCOCCOCCNc1nc(N2CCN(C(=O)CCCCCCCCCCNC(=O)[C@H](CCCCN)n3cc(C)nn3)CC2)nc(N2CCN(C(=O)CCCCCCCCCCNC(=O)[C@@H]([C@H](C)O)n3cc(C)nn3)CC2)n1	0.3	-8	1.7%	15	-0.6	-3
O=C(CCCn1c(SCC(=O)c2ccccc2)nc2ccccc2c1=O)NCC1CCCO1 (stereo unspecified)	-1.4	0	1.2%	-6	0.1	0
CCCN(CC#CC(O)(c1ccccc1)c1cccnc1)CCC (stereo unspecified)	-1.0	5	2.8%	-14	0.4	-2
CC1S/C(=C(\C#N)C(=O)NCc2ccco2)N(c2ccc(F)cc2)C1=O (stereo unspecified)	-2.5	-3	5.7%	-5	0.9	-4
O=C(Nc1nccs1)C1CCCN1S(=O)(=O)c1ccc(Cl)cc1 (stereo unspecified)	-0.7	7	0.6%[38.3 µM]	3	-0.4	2
CCOC(=O)N1CCC(N2Cc3cccc(C(=O)Nc4ccc(F)cc4)c3C2=O)CC1	-4.9	-1	0.0%	7	-0.2	-3
NC(c1csc(Nc2cc(NCCCO)ncn2)n1)c1ccccc1Cl (stereo unspecified)	-6.3	-89*	7.2%	nt	-0.4	-89*
COc1ccccc1-n1c(CNC(=O)c2ccco2)nnc1SCC(=O)Nc1nccs1	-3.6	0	4.5%	-7	-0.6	5
CCC(NC(=O)C1(C)CC1(Br)Br)c1ccc(C)cc1 (stereo unspecified)	-2.5	10	3.3%	-2	-0.3	4
CCCCn1c(SCC(=O)Nc2ccc(OC)cc2)nc2ccc(N3CCOCC3)cc2c1=O	3.6	-7	nt	42	0.1	-1
Cc1cc(C)n(-c2nnc(C)n2/N=C/c2ccccc2F)n1	-4.0	1	-2.7%	-7	-1.1	-2
CS(=O)(=O)c1ccc2nnn(OCC(=O)Nc3cccc(C#N)c3)c2c1	-4.8	nt	2.1%	7	-0.9	0
Cc1cccc(NC(=O)C2CCCN2S(=O)(=O)c2ccc(Cl)cc2)n1 (stereo unspecified)	-4.8	5	0.4%	8	0.4	10
Cc1cc(C)n2nc(C)c(Br)c2n1	-0.5	3	3.3%	3	-0.5	-4
Cc1ccc(CS(=O)(=O)CCC(=O)NCc2ccc3c(c2)OCO3)cc1	-0.9	2	?	3	0.3	0
COc1cc(-c2nc3cccc(C)n3c2NCC2CCCO2)ccc1O (stereo unspecified)	14	2	1.7%	-9	0.9	-9
OCCCNc1ncnc2c1ncn2[C@H]1CN(Cc2ccc(Cl)cc2)C[C@@H](CO)O1	-4.9	12	0.1%	nt	-0.1	1
COc1ccc(C(CNC(=O)c2ccc(S(=O)(=O)N3CCOCC3)cc2)N2CCCCC2)cc1 (stereo unspecified)	0.8	-6	-0.8%	3	0.0	-14
Cc1cccc(Cn2c(N3CCN(CCO)CC3)nc3c2c(=O)[nH]c(=O)n3C)c1	1.1	nt	-0.2%	nt	nt	11
CC(/C=N/NC(=O)c1n[nH]c2c1CCC2)=C\c1ccccc1	0.2	-7	3.4%	-1	3.8	5
O=C(c1cccc(Cl)c1)N1CCC(=O)N(C(CO)Cc2ccccc2)CC1 (stereo unspecified)	-4.3	7	-0.1%	-14	-0.1	0
Cc1ccc(OCc2nc(C#N)c(NCc3ccco3)o2)cc1	-2.3	-16	0.0%	7	0.1	-15
COC(=O)c1cc(-c2cc(OC)ccc2OC)nc2c1c(=O)n(C)c(=O)n2Cc1ccccc1	-6.0	6	3.3%	-9	0.2	2
COc1cc(OC)cc(OC(=O)C2CCN(S(=O)(=O)c3ccc(OC)c(OC)c3)CC2)c1	-2.8	-4	25%	-2	2.3	-1
CCc1ccc(Sc2cc(C(=O)NCc3ccccc3OC)c3ccccc3n2)cc1	nt	nt	-2.8%	2	-0.2	nt
O=C(c1cn(Cc2ccccc2)nc1-c1cccnc1)N1CCN(Cc2ccccc2)CC1	-2.6	0	-1.4%	2	-0.2	-2
O=C(COCc1cc(-c2cccs2)on1)N1CCN(c2cccc(Cl)c2)CC1	nt	nt	-0.5%	?	-0.6	nt
Cc1nc(-c2ccccc2)sc1C(=O)/C=C/c1ccc(Cl)cc1	-1.7	-2	-2.9%	43	2.5	6
CCOC(=O)c1c(NC(C)=O)c2c3c(sc2n1Cc1cc(C)ccc1C)CCCC3	nt	nt	-0.1%	-5	-0.4	nt
Cc1ccc(C(=O)NCCNc2ncc(C(F)(F)F)cc2Cl)cc1[N+](=O)[O-]	-5.3	-2	0.2%	14	3.3	13
Cc1cc([N+](=O)[O-])ccc1NC(=O)c1ccc(NC(=O)C(C)C)cc1	-2.0	0	3.8%	-3	-0.3	1
Cc1nc(NCCc2ccc(S(N)(=O)=O)cc2)c2c(C)c(C)sc2n1	4.7	-14	4.9%	-1	1.5	-2
CC(C)CCn1c(=O)c2ccccc2n2c(CN3CCCC3)nnc12	0.6	13	-2.0%	-16	-0.4	4
Cc1cccc(C)c1OCC(=O)Nc1nonc1-c1ccc(Br)cc1	nt	nt	?	40	2.7	nt
COc1ccc(C(=O)OCC(=O)NCc2ccc3c(c2)OCO3)cc1S(=O)(=O)N1CCOCC1	-5.9	28	-3.6%	-6	0.0	-4
O=C(OCC(=O)N1CCCC1)c1ccccc1OCc1ccccc1	-2.7	8	2.1%	-14	-0.5	-3
COc1ccc(NC(=O)CCCOc2cc(=O)n(C)c3ccccc23)c(OC)c1	nt	nt	4.7%	-12	-0.7	nt
COc1cc(OC)c(-n2cc(-c3ccc(OC)c(OC)c3)[nH]c2=S)cc1Cl	0.4	-14	8.5%	20	7.5	-10
O=C(NCc1ccccc1Cl)C1CCCN1C(=O)NCc1ccccc1 (stereo unspecified)	-0.2	nt	2.8%	nt	nt	-2
O=[N+]([O-])c1ccc(NN=C2CCCCC2)c([N+](=O)[O-])c1	-1.2	-14	6.6%	-1	-0.5	-19
CCOC(=O)Cc1cc(-c2ccc(O)cc2)nc2ccc3ccccc3c12	4.1	1	?	-6	1.4	1
CCc1ccc(CCC(=O)Nc2nnc(CC)s2)o1	-0.8	0	?	55	2.0	-9
O=C(Nc1nnc(-c2ccc(Cl)s2)o1)C1CC1	-2.9	-12	1.9%	-11	0.4	-16
CC(NC(=O)COC(=O)C12CC3CC(CC(O)(C3)C1)C2)c1ccccc1 (stereo unspecified)	4.8	5	0.3%	2	-0.4	0
CC1CCCCN1C(=O)CSc1nc(-c2ccccc2)cc(=O)[nH]1 (stereo unspecified)	-3.8	0	-0.1%	-3	1.8	0
COC(=O)Nc1ccc2c(c1)OCO2	1.4	-8	-1.3%	50	-0.1	-1
CCn1c(CSc2ncccn2)nnc1SCC(=O)N1CCCCC1	-1.7	-18	0.7%	4	0.2	7
O=C(CNc1ccc(Br)cc1)NC(=O)NC1CCCCC1	-0.6	-3	?	-5	-0.5	-5
COc1ccc(OC)c(C(c2nnnn2Cc2ccco2)N2CCN(C)CC2)c1 (stereo unspecified)	-5.8	nt	-1.1%	-2	-0.5	34
CCOc1ccc(C(C)=O)cc1COc1cccnc1[N+](=O)[O-]	-0.3	1	7.4%	-16	1.5	-6
CCN1CCN(C(C(=O)NC2CCCCC2)c2ccc(Cl)cc2)CC1 (stereo unspecified)	-1.7	-1	-2.3%	-6	0.8	-1
CCOC(=O)Cn1c(=O)oc2cc(S(=O)(=O)N3CCN(c4cccc(Cl)c4)CC3)ccc21	nt	nt	0.4%	5	0.2	nt
Cc1cc(Nc2ccc(F)cc2)c2ccccc2n1	-3.1	1	1.0%	23	0.1	-1
CCCNC(=O)C1(C)CCN(C(=O)c2ccc(F)cc2Cl)C1 (stereo unspecified)	0.6	2	0.4%	88	4.4	6
CCOC(=O)C1=CNS(=O)(=O)NC1c1ccc(C#N)cc1 (stereo unspecified)	-1.9	-8	-0.4%	-12	4.4	8
COC(=O)c1ccccc1S(=O)(=O)N1CCn2cccc2C1C (stereo unspecified)	-4.1	5	0.3%	13	-1.5	2
CS(=O)(=O)c1ccc2nc(NC(=O)CS(=O)(=O)c3ccc(Cl)cc3)sc2c1	nt	nt	-0.7%	-25	0.5	nt

# Among those listed so far, these contain a CF3 group:
SMILES	D2 agonist	CtBP-E1A blk	PINK1 expr mod	TRPML1 blocker	TRPML1 ag	Six1-Eya2 inh
O=C1CC(N2CCN(S(=O)(=O)c3cccc(C(F)(F)F)c3)CC2)C(=O)N1Cc1ccccc1 (stereo unspecified)	-0.9	2	-0.2%	-3	1.3	0
Cc1ccc(C(=O)NCCNc2ncc(C(F)(F)F)cc2Cl)cc1[N+](=O)[O-]	-5.3	-2	0.2%	14	3.3	13

# Remaining list, next part.
SMILES	D2 agonist	CtBP-E1A blk	PINK1 expr mod	TRPML1 blocker	TRPML1 ag	Six1-Eya2 inh
CC(C)CCOc1ccc(C(=O)O)cc1	-0.8	10	-1.0%	-20	-0.1	0
COc1ccccc1-c1nnc(SCC(N)=O)o1	nt	nt	2.7%	-1	0.6	nt
COc1cccc(-c2cc(C(=O)N3N=C(C)CC3(O)C(F)F)c3ccccc3n2)c1 (stereo unspecified)	-6.4	0	6.7%	1	-0.2	-1
O=C(NC1CCCC1)C1CCN(C(=O)c2ccc(Cl)cc2)CC1	-4.1	4	-0.5%	-17	-0.2	-2
O=C(CC(=O)Nc1ccccn1)Nc1ccccn1	-1.1	0	1.5%	-14	-0.4	7
Cc1ccc(NC(=O)CSc2nc3ncc(Cl)cc3[nH]2)c(C)c1	-0.1	-2	9.1%	24	1.7	-1
O=C(Cn1cnc(S(=O)(=O)N2CCCCC2)c1)Nc1ccc(OC(F)(F)F)cc1	3.8	-14	-1.5%	-17	0.2	1
COc1cc(C(=O)NCC(c2cccnc2)N2CCc3ccccc32)cc(OC)c1OC (stereo unspecified)	nt	nt	-1.2%	4	0.4	nt
Cn1c(C2CCCCC2)nc2cc(N)ccc21	0.9	nt	0.2%	-7	-0.4	-3

# Not a hit list. Share with any hit: about 1%.
